Mtb growth: Mycobacterium tuberculosis H37Rv growth inhibition, putative kinase inhibitor library, confirmatory dose response (AID 2842). M. tuberculosis H37Rv growth inhibition; higher % means a stronger effect; some inactives read as strong as hits. one-dose inhibition, % at 10 µg/mL; IC90 in µg/mL for titrated hits. actives 5.2% (n = 24,000);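 active = confirmed in a dose series; inconclusive = mostly over 85% at the one dose but not retested; inactive = below 85% or not confirmed; about a fifth of its hits are not listed in these tables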;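 also: bacteria incubated one week before Alamar blue readout; 0% = bacteria only wells and 100% = bacteria with high antibiotic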
The depositor's hits bear a star; ? = inconclusive. This is a subset, so the mix of outcomes need not match the whole.

molecule	Mtb growth
O=C(COc1ccc(Cl)cc1Cl)Nc1nnc(-c2ccc(F)cc2)s1	3%
CCOc1ccccc1NC(=O)c1oc2ccccc2c1NC(=O)c1ccc([N+](=O)[O-])cc1	-7%
COc1ccc(OC)c2[nH]c(=O)c(CCNC(=S)Nc3cccc(Cl)c3C)cc12	-1%
COc1ccc2nc(Nc3nc4c(s3)CC(C)CC4)sc2c1 (stereo not drawn)	49%
CCOC(=O)c1cccc(-n2c(O)c(/C=C3\C=Nc4ccccc43)sc2=S)c1	7%
CCOC(=O)CCC(=O)Nc1c(C(=O)Nc2ccc(OC)c(OC)c2)oc2ccccc12	5%
Cn1c(=O)[nH]c(=O)c2c1nc(SCCCO)n2CCCc1ccccc1	10%
Cc1cc(=O)[nH]c2nnc(SCc3ccccc3)n12	-4%
COC(=O)c1ccc2c(c1)C1CC(C)(O2)N(c2ccc(OC)c(OC)c2)C(=O)N1 (stereo not drawn)	-11%
Cc1ccc2cc(CCNC(=O)C(C)C)c(=O)[nH]c2c1	-4%
CC1C(=O)N2CCCc3cc(NS(=O)(=O)c4ccc(F)cc4)cc1c32 (stereo not drawn)	2%
CCOc1cccc(-c2nc(C(N)=O)c3[nH]c(=O)n(-c4ccc(F)cc4)c3n2)c1O	5%
Cc1ccc(-c2nnc3c4cc5c(cc4n(Cc4ccccc4F)cc2-3)OCO5)cc1	19%
Cc1cccc(CSc2nc3c(c(=O)[nH]c(=O)n3C)n2Cc2ccccc2)c1	-5%
Cn1c(=O)c2c(SCc3ccc(C(F)(F)F)cc3)nc(-c3ccc([N+](=O)[O-])cc3)nc2n(C)c1=O	-18%
CCOC(=O)c1ccc(NC(=O)CSc2ncnc3c2nnn3Cc2ccccc2)cc1	-14%
Fc1ccc(-c2ccc(/C=N/n3cnnc3)o2)cc1	-1%
Cc1cc(C)cc(NC(=O)CSc2ccc3nnc(-c4ccccc4)n3n2)c1	1%
COCCNC(=O)CSc1nc2[nH]ncc2c(=O)[nH]1	5%
CC(=O)c1c(C)oc2ccc(N(C(=O)c3ccccc3)S(=O)(=O)c3ccc4ccccc4c3)cc12	51%
CC(=O)Nc1ccc(Nc2ncnc3c2cnn3-c2ccccc2)cc1	12%
OCc1cn(-c2ccccc2)nc1-c1ccc(F)cc1	6.4µg/mL*
O=C(CC1Nc2ccccc2NC1=O)NC1CCCCC1 (stereo not drawn)	5%
Cc1cccc(NC(=O)c2cnc3sccn3c2=O)n1	-4%
Cc1cn2c3c(=O)[nH]c(=O)n(C)c3nc2n1CCNc1ccc(Oc2ccccc2)cc1	0%
Nn1c(SCC(=O)Nc2ccc(Cl)c(C(F)(F)F)c2)nnc1-c1ccncc1	21%
O=C(Nc1nc(-c2ccc(F)cc2)cs1)c1ccc(S(=O)(=O)N2CCCCCC2)cc1	-2%
Cc1cc(NC(=O)c2ccc3ccccc3c2)nc2c1c(=O)oc1ccccc12	-2%
COc1ccc(OC)c(NC(=O)CSc2nc(N)c(NC(=O)c3ccco3)c(=O)[nH]2)c1	2%
Cc1ccccc1CC1SC(=Nc2ccccc2)NC1=O (stereo not drawn)	?
Cc1ccc(NS(=O)(=O)c2ccc3c(c2)C(=O)c2ccccc2C3=O)c(C)c1	-3%
Cc1cc(NC(=O)CSc2nc(-c3ccco3)nc3c2c(=O)n(C)c(=O)n3C)no1	2%
CC(C)N1CCc2c(sc(NC(=O)c3cc(Cl)ccc3Cl)c2C(N)=O)C1	16%
COc1ccc(S(=O)(=O)c2nnn3c2nc(Nc2cccc(F)c2)c2ccccc23)cc1	-4%
CCOC(=O)c1nn(-c2ccccc2)c(=O)c2c(NC(=O)CCCCl)scc12	-3%
CCOc1ccc2c(c1)c(=O)c(S(=O)(=O)c1ccc(F)cc1)cn2Cc1ccccc1F	11%
Cc1cccc(NC(=O)CSc2ccc3nnc(-c4ccc(Cl)cc4)n3n2)c1C	-7%
CCOc1ccc(-c2nc(NC(=O)COc3ccc(Cl)cc3)sc2C)cc1	-4%
CC1CCc2sc(NC(=O)c3ccc(Cl)cc3Cl)c(C(N)=O)c2C1 (stereo not drawn)	-5%
Nc1nc(SCC(=O)OCc2ccccc2)[nH]c(=O)c1NC(=O)c1ccc(F)cc1	-6%
CCOc1cccc2c1Oc1nc(-c3ccc(OC)c(OC)c3)[nH]c(=O)c1C2	-6%
O=c1[nH]cc(S(=O)(=O)Nc2cccc(Cl)c2)c(=O)[nH]1	0%
COc1ccc(OC)c2[nH]c(=O)c(CCNC(=O)c3cc(Br)ccc3Cl)cc12	-2%
O=C(NNc1ncnc2c1cnn2-c1ccc(Cl)cc1)c1ccc(Cl)c(Cl)c1	35%
CC(C)N1CCc2c(sc(NC(=O)CCc3ccccc3)c2C#N)C1	-10%
CC(=O)N1CCc2c(sc(NC(=O)C3CCCCC3)c2C#N)C1	8%
COC(=O)C1=C(C)Nc2nc(SC)[nH]c(=O)c2C1c1cccc(Br)c1 (stereo not drawn)	5%
O=C(CC1Sc2ccc(C(F)(F)F)cc2NC1=O)Nc1ccc(N2CCOCC2)cc1 (stereo not drawn)	-1%
Cc1cc(C)cc(NC(=O)CSc2ccc3nnc(-c4ccncc4)n3n2)c1	-4%
CCCCC(=O)Nc1nnc(-c2ccco2)o1	28%
Cc1ccc(C)c(C(=O)Nc2sc3c(c2C(N)=O)CCCC3)c1	18%
COc1cccc(C(c2sc3ncnn3c2O)N2CCN(CCO)CC2)c1 (stereo not drawn)	-4%
CC(C)OCCCNC(=O)c1c(N)n(/N=C/c2ccccc2O)c2nc3ccccc3nc12	6%
CCn1c(SCC(N)=O)nc2c1c(=O)[nH]c(=O)n2C	10%
O=C(Nc1nnc(C2=COCCO2)o1)c1ccco1	0%
CSc1ccc(CC(=O)Nc2sc3c(c2C(N)=O)CCCCC3)cc1	-7%

(continued)
molecule	Mtb growth
Cc1ccc(C(=O)Oc2coc(CSc3ncccn3)cc2=O)cc1[N+](=O)[O-]	1%
O=C(CSc1nc2c(c(=O)n1-c1ccc(F)cc1)SCC2)Nc1cccc(F)c1	14%
O=C(Cc1cccc2ccccc12)Nc1nnc(-c2ccc(F)cc2)o1	22µg/mL*
Cc1nnc(SCCn2c(N3CCN(Cc4ccccc4)CC3)nc3c2c(=O)n(C)c(=O)n3C)s1	-4%
COc1ccc(OC)c2[nH]c(=O)c(CCNC(=O)c3ccc(C)c([N+](=O)[O-])c3)cc12	4%
COc1ccc(Cc2cnc(NC(=O)c3cccc(-n4cnnn4)c3)s2)cc1	6%
NC(=O)CSc1nnc(Cn2c(=O)sc3ccccc32)n1-c1cccc(Cl)c1	6%
CC(=O)Oc1ccc(C(=O)Nc2nc3c(s2)CCCC3)cc1	84%
CC(=O)c1ccc(NC(=O)c2ccc(-c3cc(Cl)ccc3Cl)o2)cc1	-8%
CCOc1ccc(C(=O)NC2CC(=O)N(c3ccc4c(c3)OCCO4)C2)cc1 (stereo not drawn)	1%
Cc1ccc(NS(=O)(=O)c2cc3c4c(c2)C(C)C(=O)N4CCC3)cc1F (stereo not drawn)	77%
Cc1cccc(-c2nnc(NC(=O)c3ccc(Br)cc3)s2)c1	7%
Cc1cccc(CC2S/C(=N/N=C/c3ccc(O)cc3)NC2=O)c1 (stereo not drawn)	-3%
O=C(Nc1cccc(C(F)(F)F)c1)NC1CC(=O)N(c2ccc3c(c2)OCCO3)C1 (stereo not drawn)	76%
CC(C)CC(=O)Nc1c(C(=O)Nc2ccccc2F)oc2ccccc12	8%
Nc1ncnc(Oc2ccc(Cl)cc2Cl)c1[N+](=O)[O-]	25%
CC(=O)Nc1ccc(NC(=O)c2cnsn2)cc1	-13%
Cc1ccc(C)c(NC(=O)CSc2nnc(CNC(=O)COc3ccc(Cl)cc3)o2)c1	-6%
CCOc1ccccc1NC(=O)c1oc2ccccc2c1NC(=O)c1ccccc1	-8%
CCc1nc(SCC(=O)NCc2ccc(F)cc2)c2c(=O)n(C)c(=O)n(C)c2n1	6%
O=C(CC1S/C(=N/N=C/c2ccco2)NC1=O)c1cccs1 (stereo not drawn)	6%
O=C(O)c1nc2nc[nH]c2cc1Br	-2%
Cc1cccc(NC(=O)Cn2nnc(C(=O)NCc3ccc4c(c3)OCO4)c2N)c1C	-4%
Cc1c(C)n2c(SCc3cccc(C(F)(F)F)c3)nnc2[nH]c1=O	-7%
CCOC(=O)CSc1nnc(CNC(=O)c2ccc(OC)cc2)n1Cc1ccccc1	-15%
CC(C)Sc1nnc(NC(=O)C2CC2)s1	3%
COC(=O)c1c(NC(=O)c2ccc(C#N)cc2)sc2c1CCN(C(C)=O)C2	-2%
O=C(NNc1ncnc2c1cnn2-c1ccc(Cl)c(Cl)c1)c1ccccc1	-5%
O=C(CSc1ccc(-c2ccc3c(c2)OCO3)nn1)c1ccc(F)cc1	11%
O=C(C1=C(O)C(=O)N(CCCn2ccnc2)C1c1ccc(F)cc1)c1cc2ccccc2o1 (stereo not drawn)	-14%
COc1cccc(C(Nc2ccccn2)c2c(C)[nH]c3ccccc23)c1OC (stereo not drawn)	4%
O=C(CCn1c(=S)oc2ccccc21)Nc1ccc(F)cc1	-8%

Entries from the list above that have bromine (four):
molecule	Mtb growth
COc1ccc(OC)c2[nH]c(=O)c(CCNC(=O)c3cc(Br)ccc3Cl)cc12	-2%
COC(=O)C1=C(C)Nc2nc(SC)[nH]c(=O)c2C1c1cccc(Br)c1 (stereo not drawn)	5%
Cc1cccc(-c2nnc(NC(=O)c3ccc(Br)cc3)s2)c1	7%
O=C(O)c1nc2nc[nH]c2cc1Br	-2%

The listing continues:
molecule	Mtb growth
CNC(=O)CSc1nnc2[nH]c(=O)c(C)c(C)n12	-1%
COc1ccccc1NC(=O)CSc1ccnc2c1c(=O)n(C)c(=O)n2C	-5%
Cc1ccc2nc(NCc3ccccc3)c(C=Nc3cccc(Cl)c3)c(=O)n2c1	8%
O=C(CSc1ncnc2ccccc12)Nc1cccc(C(F)(F)F)c1	15%
COc1cccc(-c2ccc3nnc(SCC(=O)Nc4cccc(F)c4)n3n2)c1	0%
COc1ccc2c(-c3cc4ccccc4oc3=O)cc(=O)oc2c1	-7%
COc1cc(-c2nnc(NC(=O)c3ccccc3[N+](=O)[O-])o2)cc(OC)c1OC	80%
O=C(Cc1ccc(F)cc1)N(CCCn1ccnc1)c1nc2c(F)cccc2s1	3.7µg/mL*
Cc1ccc(NC(=O)Cn2ccn(-c3cccc4ccccc34)c(=O)c2=O)cc1C	-7%
CC1CN(c2ncnc3c2cnn3-c2cccc(Cl)c2)CC(C)O1 (stereo not drawn)	42%
COc1ccccc1/C=C/C(=O)Nc1sc2c(c1C#N)CCC(C)C2 (stereo not drawn)	-9%
Cc1ccc(C)c2[nH]c(=O)c(CCNC(=O)c3cc4ccccc4o3)cc12	-5%
O=C(NC1CCS(=O)(=O)C1)c1ccc(Cl)c([N+](=O)[O-])c1 (stereo not drawn)	-16%
COc1cccc2cc(-c3nnc(Nc4cccc(C(F)(F)F)c4)s3)c(=O)oc12	5%
CCS(=O)(=O)c1ccc(C(=O)Nc2nc3cc4c(cc3s2)OCO4)cc1	-14%
O=c1ccnc(N/N=C/c2cccs2)[nH]1	-1%

In the list so far, 4 contain a cyano group.
molecule	Mtb growth
CC(C)N1CCc2c(sc(NC(=O)CCc3ccccc3)c2C#N)C1	-10%
CC(=O)N1CCc2c(sc(NC(=O)C3CCCCC3)c2C#N)C1	8%
COC(=O)c1c(NC(=O)c2ccc(C#N)cc2)sc2c1CCN(C(C)=O)C2	-2%
COc1ccccc1/C=C/C(=O)Nc1sc2c(c1C#N)CCC(C)C2 (stereo not drawn)	-9%

Other structures:
molecule	Mtb growth
O=[N+]([O-])c1cc(C(F)(F)F)cc([N+](=O)[O-])c1N1CCCC(C(F)(F)F)C1 (stereo not drawn)	-5%
CCCCC1CCC(C(=O)Nc2cc(C)c3c(=O)oc4ccccc4c3n2)CC1 (stereo not drawn)	73%
CC(C)Sc1nc2c(c(=O)[nH]1)C(c1cccs1)C1=C(CC(C)(C)CC1=O)N2 (stereo not drawn)	8%
FC(F)(F)c1cccc(CSc2ncnc3ccccc23)c1	15%
Fc1ccc2nc(Nc3nc4c(s3)CCCC4)sc2c1	?
CCCCn1c(NCCC)nc2c1c(=O)[nH]c(=O)n2C	-4%
COC(=O)Cn1c(=NC(=O)c2cccc(F)c2)sc2cc(S(N)(=O)=O)ccc21	7%
Cc1ccc2cc(CCNC(=O)c3ccccc3I)c(=O)[nH]c2c1	4%
Cc1nc2sc(C(c3ccc(C(C)C)cc3)N3CCCCC3)c(O)n2n1 (stereo not drawn)	-3%
CCS(=O)(=O)c1ccc(CC(=O)Nc2nnc(-c3ccccc3Cl)o2)cc1	-9%
NC(=O)c1nc(-c2ccc(F)cc2)nc2c1[nH]c(=O)n2-c1ccc(F)cc1	-2%
COc1cc(/C=N\NC(=O)c2sc(N)nc2C)cc([N+](=O)[O-])c1O	1%
COc1ccccc1-c1nnc(NC(=O)c2ccc(Cl)cc2)o1	81%
O=C(Nc1nnc(-c2ccncc2)o1)C1CC1	-6%
CCCCC(=O)Oc1cc(C)[nH]c(=O)c1[N+](=O)[O-]	26%
CCOc1cc(-c2nnc(NC(=O)c3ccc([N+](=O)[O-])cc3)o2)cc(OCC)c1OCC	-11%
Cc1cc(C)c(NC(=O)CSc2nc(N)c(NC(=O)c3ccc(F)cc3)c(=O)[nH]2)c(C)c1	11%
CCc1cccc(NC(=O)COC(=O)c2cc(C(C)=O)n3ccccc23)c1	-2%
COc1cc2nc(NC(=O)c3ccc(C(C)=O)cc3)sc2cc1OC	58%

Screening data (PubChem BioAssay)
